B2AR ag: activates human beta-2 adrenergic receptor causing internalization | Am2.2-beta2AR cells, FAP receptor internalization, flow cytometry; reference of the scale not given here | response, % (concentration not given with the values) | hit rate 0.43% among 340,000 | P07550;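 active = response above a set limit, near 3 SD of response in nonfluorescent compounds, cut at about 42% in these data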;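 note: stock transfer was 100 nL into about 11 µL; a reference agonist was the positive control; negative values mostly stem from fluorescent compounds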
Target sequence (P07550 whole entry, looked up): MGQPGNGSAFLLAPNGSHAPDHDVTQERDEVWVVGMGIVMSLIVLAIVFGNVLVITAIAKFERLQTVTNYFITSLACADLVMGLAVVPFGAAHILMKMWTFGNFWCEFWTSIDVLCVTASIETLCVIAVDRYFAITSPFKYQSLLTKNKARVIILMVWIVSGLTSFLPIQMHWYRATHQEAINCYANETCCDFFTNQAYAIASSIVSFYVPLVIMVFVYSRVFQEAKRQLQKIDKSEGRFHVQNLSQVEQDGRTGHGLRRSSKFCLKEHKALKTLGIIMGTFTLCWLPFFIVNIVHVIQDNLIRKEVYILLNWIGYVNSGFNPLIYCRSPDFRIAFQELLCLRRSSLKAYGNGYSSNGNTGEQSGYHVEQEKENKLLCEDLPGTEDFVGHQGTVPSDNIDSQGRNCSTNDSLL
RanGTP-Impb inh: disruptors of Ran-importin-beta complex formation – biochemical, FRET, CFP-Ran, YFP-importin-beta, homogeneous, primary screen; hit rate 1.1% among 300,000; cell-free CFP-Ran/YFP-importin-beta FRET ratio; inhibition, % (concentration not given with the values);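 active = most replicates above 15%; inconclusive = exactly half above 15%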;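 note: 0% = DMSO wells and 100% = Ran loaded with GDP instead of GTP; wells of about 40 µL received 100 nL stock; the first replicate is given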
Calb FLC: affects C. albicans growth with fluconazole. hit rate 0.57% among 300,000. growth inhibition, % (concentration not given with the values). C. albicans CaCi-2 (fluconazole-resistant clinical isolate) + fluconazole, Alamar Blue growth, 48 h;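 active = most replicates above 75%; inconclusive = exactly half above 75%; inactive = most below 75%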;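 note: all wells also contain fluconazole at 8 µg/ml as a sub-toxic cotreatment; 0% = median of DMSO wells and 100% = median of geldanamycin control wells; wells of about 8 µL received 7.5 nL stock; the first replicate is given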
LANA-H2A inh: blocks KSHV LANA binding to histone H2A/H2B; Q9QR71; cell-free LANA-H2A/H2B peptide, fluorescence polarization; inhibition, % (no concentration beside the values); hit rate 0.6% among 320,000; in the data active = inhibition mostly above about 10%, no sharp cut-off; inactive = mostly below about 6.7%;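 note: stock transfer was 7.5 nL into about 10 µL; 0% = median of vehicle wells and 100% = median of positive control wells; one replicate is shown; the record names a cut of 25% in any replicate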
UCH37 DUB inh: inhibitors of human deubiquitinating enzyme UCH37 | purified proteasome/UCH37, Ub-AMC cleavage fluorescence | Q9Y5K5 | AID 588478 | inhibition, % (test concentration not listed) | hit rate 0.33% among 330,000;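 active = mean of two replicates above 20%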;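 note: 0% = compound-free wells with enzyme and 100% = wells lacking proteasome; stock transfer was 100 nL into about 20 µL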
Target sequence (Q9Y5K5 whole entry, looked up): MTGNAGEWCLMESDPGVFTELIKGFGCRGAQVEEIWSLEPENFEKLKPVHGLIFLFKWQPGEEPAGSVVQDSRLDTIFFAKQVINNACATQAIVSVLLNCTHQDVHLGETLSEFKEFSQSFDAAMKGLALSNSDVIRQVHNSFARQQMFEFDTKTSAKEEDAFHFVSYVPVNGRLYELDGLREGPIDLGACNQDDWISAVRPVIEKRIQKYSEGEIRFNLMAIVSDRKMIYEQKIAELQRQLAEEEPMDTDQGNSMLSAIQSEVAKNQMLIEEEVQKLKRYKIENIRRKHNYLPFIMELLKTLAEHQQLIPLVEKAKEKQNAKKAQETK
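Reagent: Ub-AMC substrate; assay system: Proteasome-associated human UCH37 deubiquitinase; controls: no-proteasome and no-compound wells; read-out: % inhibition of Ub-AMC cleavage fluorescence; timing: 30 min preincubation with enzyme, 25 min cleavage at room temperature; signal: AMC fluorescence from Ub-AMC cleavage, excitation 355 nm, emission 460 nm; buffer or medium: Tris-HCl pH 7.4 plus ovalbumin, ATP-MgCl2, DTT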
Beta cell apopt: beta cell apoptosis inhibition | INS-1E cytokine-induced death, ATP luminescence, 48 h; percent of positive-control rescue, neutral wells zero | protection from apoptosis, % (concentration not given with the values) | AID 435005 | hit rate 0.8% among 300,000;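 active = all replicates at 75% or more, or half of them and the mean; inconclusive = half reach 75% but not the mean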;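 note: 0% = cytokine-treated negative control wells and 100% = positive control rescue; higher means more ATP so stronger rescue from cytokine killing; wells of about 40 µL received 100 nL stock; the first replicate is given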
T cruzi repl: blocks replication of Trypanosoma cruzi | inhibition, % (concentration not given with the values) | hit rate 1.4% among 300,000 | T. cruzi beta-gal in NIH3T3, luminescence, 90 h;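 active = mean inhibition across valid replicates above about 55%, limit read from the data; inconclusive = mean below that limit but half or more replicates reach it; inactive = mean below it, under half of replicates reach it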;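 note: signal also drops with host cell toxicity which is not excluded here; 0% = plate median of DMSO wells and 100% = zero luminescence signal; higher percent means less beta-gal luminescence so fewer parasites; stock transfer was 50 nL into about 50 µL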
A1 inh: inhibitors of the anti-apoptotic protein A1, read as caspase activation | MEF A1-2A-BIM cells, Caspase-Glo 3/7 luminescence, 3 h; percent of clofoctol response, vehicle zero | caspase activation, % (test concentration not listed) | hit rate 0.066% among 330,000;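 active = over half of replicate activation scores above 10%, or exactly half above 10 with the replicate mean above 10; inconclusive = replicate mean below 10 yet half the replicates above 10; inactive = over half of replicates below 10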;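 note: wells of about 30 µL received 50 nL stock; many hits fall short of the cut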
* marks the source's active call; other numbers are inactive results; ? = inconclusive; . = not tested or not shown. Compounds as they come. Share with any hit: about 4.3%.

Every second line gives: A1 inh	Beta cell apopt	RanGTP-Impb inh	UCH37 DUB inh	T cruzi repl	B2AR ag	LANA-H2A inh	Calb FLC
[1] CC(=O)c1cc2c(cc1NC(=O)Cn1cnc3ccccc3c1=O)OCO2
 : 0.8	2	.	-23	.	0	1.6	.
[2] COc1ccccc1CCN1CCCC(CN(C)C(=O)CCC(N)=O)C1 (stereo not given)
 : 0.0	0	4.7	3.9	4	9	-7.0	15
[3] C=C(C)C(=O)OCC(C)C
 : -0.5	1	.	-0.3	.	-3	-0.6	.
[4] O=S(=O)(NCCCN1CCOCC1)c1ccc2ccccc2c1
 : -0.4	2	6.1	3.6	17	-10	-0.6	9
[5] Cc1ccc(C2C(C#N)=C(N)Oc3cc(C)oc(=O)c32)o1 (stereo not given)
 : 0.0	-1	1.5	3.2	6	3	4.1	-4
[6] CCCCN1C(=O)c2ccc(C(=O)Nc3ccc(C)c(S(=O)(=O)N(C)C)c3)cc2C1=O
 : 1.2	2	-4.0	2.1	-9	20	-2.2	4
[7] O=C(N/N=C/c1cccs1)[C@H]1C[C@@H]1c1ccccc1
 : -0.1	-3	?	.	3	2	3.8	-13
[8] O=C(Nc1ccc2c(c1)OCCO2)C1CCCN(S(=O)(=O)c2cccc3nsnc23)C1 (stereo not given)
 : 0.0	-7	-2.0	1.7	-4	13	10	-6
[9] C[C@H](NC(=O)[C@@H]1CSC2c3ccccc3C(=O)N21)C(=O)NCCc1ccc(F)cc1 (stereo not given in full)
 : 0.6	-2	-3.6	2.7	9	-9	7.7	.
[10] CCOc1ccc(NC(=O)CN(C)C(=O)CC2CC3CCC2C3)cc1OCC (stereo not given)
 : 1.0	-2	-0.7	-1.2	18	5	0.0	-12
[11] CC(C)(C)c1ccc(C(=O)NC(=S)Nc2ccc(N3CCOCC3)cc2)cc1
 : 0.9	-6	-3.6	4.3	-6	-3	-0.9	11
[12] c1ccc(-c2cc(-c3nc4ccccc4[nH]3)c3ccccc3n2)cc1
 : -0.6	21	?	-131	55*	7	0.3	?
[13] CC(C)N(CCNCc1nnc(-c2ccccc2)o1)C(C)C
 : -0.7	6	8.9	6.9	-2	-5	1.5	-3
[14] CC(=O)c1ccc(OCC(C)Oc2ccc(C#N)cc2)cc1 (stereo not given)
 : 0.4	-1	0.5	3.4	8	2	3.2	-5
[15] Cc1ccc(NC(=O)Nc2nnc(-c3ccncc3)s2)cc1
 : -0.4	16	-2.7	-7.0	11	16	6.6	25
[16] N#CCSc1nc2ccccc2c2nc3ccccc3n12
 : 0.2	103*	-3.6	0.6	-9	11	4.4	-1
[17] Cc1cc(C(F)(F)F)nc(Nc2nc(C)c3ccccc3n2)n1
 : 0.1	-6	1.4	5.4	-6	-2	-0.8	-11
[18] Cc1cc(NC(=O)CSc2nnc3ccc(-c4ccc(F)cc4)nn23)no1
 : -0.3	.	0.9	-14	-3	27	-9.1	-4
[19] CC(C)CC(NC(=O)C(CC(C)C)NC(=O)OC(C)(C)C)C(=O)O (stereo not given)
 : 0.6	-10	1.6	3.4	-10	3	0.2	-20
[20] Cc1cccc(NS(=O)(=O)c2ccc(C(=O)N3CCCC3)cc2)c1C
 : -0.9	0	2.8	0.9	-10	-5	6.1	4
[21] O=C(Nc1cccc(-c2ccc(N3CCOCC3)nn2)c1)c1ccc(F)cc1F
 : 0.1	.	-0.9	4.0	-5	-3	-0.8	16
[22] Cc1nn(C(CC(=O)O)C(=O)O)c(C)c1Br (stereo not given)
 : 0.8	6	7.2	2.1	-2	0	-2.1	-7
[23] CC1(CCCN2C(=O)c3ccccc3C2=O)OCCO1
 : 0.4	-11	2.3	4.7	-3	4	2.0	-6
[24] CC1Cc2ccccc2N1S(=O)(=O)c1cnc[nH]1 (stereo not given)
 : 0.6	-3	-1.2	0.2	-2	24	5.1	3
[25] O=C(CN1CCC(O)(c2cccc(C(F)(F)F)c2)CC1)NCCc1ccccc1
 : -0.1	0	-0.7	.	6	-6	0.8	6
[26] COc1ccccc1NC(=O)Nc1ccncc1
 : -0.6	0	2.2	0.7	21	-1	4.1	-4
[27] O=C(c1cc(-c2ccc(Cl)cc2Cl)on1)N1CCOCC1
 : -5.4	-3	-0.3	4.0	0	-22	-6.4	42
[28] Cc1cccc(C)c1NC(=O)N1CC(C)OC(C)C1 (stereo not given)
 : 0.4	-11	7.5	0.3	-1	-4	-5.2	2
[29] COc1cc(OC)c2c(-c3ccccc3)cc(=O)oc2c1C(CCN1CCCC(C)C1)c1ccc2c(c1)OCO2 (stereo not given)
 : 0.1	67	6.3	1.9	21	18	0.9	-9
[30] COCCCN1CN(S(=O)(=O)c2ccc(Cl)cc2)c2nc3ccccc3nc21
 : -0.2	-4	3.7	-8.6	18	-9	3.2	.
[31] C=CCN(C(=O)Cn1nnc2ccccc21)C(C(=O)NCCOC)c1ccc(OC)cc1OC (stereo not given)
 : -0.7	1	-1.2	0.6	-5	-1	2.1	-9
[32] COc1ccc(NC(=O)Nc2ccc(F)cc2)cn1
 : -1.5	2	3.3	1.1	-11	2	-4.1	2
[33] Cc1cccc(CC(C)NC(=O)c2cc(COc3ccc(F)cc3F)on2)n1 (stereo not given)
 : 0.0	-2	-0.2	0.7	8	-6	-2.4	-5
[34] CCN(Cc1ccccc1)S(=O)(=O)c1ccc(C(=O)N(CCCN(C)C)c2nc3c(C)c(C)ccc3s2)cc1
 : -0.5	.	4.7	2.3	60*	34	0.7	36
[35] Cc1ccc(C)c(CSCc2nc3ccccc3[nH]2)c1
 : 0.5	6	?	-23	-20	-4	-1.6	1
[36] CCOc1ccc(-n2c(-c3ccccc3)nnc2-c2ccccc2)cc1
 : 1.0	5	1.8	5.1	2	-3	-0.8	1
[37] CCN(CC(=O)Nc1ccc(OC)cc1)C(=O)c1ccc2c(c1)NC(=O)C(C)S2 (stereo not given)
 : -0.4	0	.	3.1	-3	8	4.1	-3
[38] CCCCn1c(SCC(=O)O)nc2ccccc21
 : 0.3	3	?	3.6	-2	10	2.0	-21
[39] O=C(Nc1cc([N+](=O)[O-])ccc1N1CCOCC1)c1ccco1
 : 0.2	-1	4.8	1.5	-2	-16	-2.5	7
[40] Cc1ccc(C2(C)NC(=O)N(CC(=O)N(Cc3ccccc3)C(C)(C)C)C2=O)cc1 (stereo not given)
 : 0.0	-2	2.3	1.1	12	-10	17*	-7
[41] CCC(CC)C(=O)Nc1nnc(CCc2ccccc2)s1
 : 0.0	-1	1.0	-0.1	-4	-1	1.5	-11
[42] CCOC(=O)C1CCN(C(=O)COc2ccc(S(=O)(=O)NC(C)C)cc2Cl)CC1
 : 0.6	-2	-0.1	5.3	-3	9	-3.6	13
[43] CCOC(=O)C1=C(c2ccccc2)N=C2SCC(=O)N2C1c1ccc(O)c(OC)c1 (stereo not given)
 : -0.7	-8	5.4	4.8	-14	21	1.7	4
[44] O=C(Nc1ccc2cn[nH]c2c1)c1ccccc1F
 : 0.1	-2	-0.8	2.7	-17	0	-1.7	-2
[45] O=C1CCCC2=C1C(c1cccs1)Nc1ccccc1N2 (stereo not given)
 : 1.4	0	-2.1	11	-8	9	-0.7	-4

Some entries already given, showing only LANA-H2A inh:
No.	SMILES	LANA-H2A inh
7	O=C(N/N=C/c1cccs1)[C@H]1C[C@@H]1c1ccccc1	3.8
8	O=C(Nc1ccc2c(c1)OCCO2)C1CCCN(S(=O)(=O)c2cccc3nsnc23)C1 (stereo not given)	10
9	C[C@H](NC(=O)[C@@H]1CSC2c3ccccc3C(=O)N21)C(=O)NCCc1ccc(F)cc1 (stereo not given in full)	7.7
10	CCOc1ccc(NC(=O)CN(C)C(=O)CC2CC3CCC2C3)cc1OCC (stereo not given)	0.0

Continued:
Every second line gives: A1 inh	Beta cell apopt	RanGTP-Impb inh	UCH37 DUB inh	T cruzi repl	B2AR ag	LANA-H2A inh	Calb FLC
[46] CC1CC(C)CN(CCCNC(=O)c2ccc(CS(=O)(=O)Cc3ccccc3F)o2)C1 (stereo not given)
 : 0.0	-1	-0.2	0.0	3	-8	-5.5	-9
[47] COC(=O)CCC(=O)OC1(C)C(=O)C=C2C=C(C3CC3)N(CCc3ccccn3)C=C2C1=O (stereo not given)
 : 0.0	-7	-2.1	6.7	-5	-5	5.5	5
[48] COc1ccc(C(=O)N/C(=C\c2cn(S(=O)(=O)N(C)C)c3ccccc23)C(=O)NC(C)C)cc1
 : 0.2	3	-2.2	1.7	12	-2	3.1	32
[49] Cc1nn(-c2ccccc2)c(C)c1/C=N\N1CCN(c2ccc(Cl)cc2)CC1
 : 0.5	-2	2.7	.	22	-9	8.9	-4
[50] O=C1/C(=C/c2ccc3c(c2)OCO3)CCC/C1=C\c1ccc2c(c1)OCO2
 : -0.2	-2	1.3	2.5	2	2	-1.8	-27
[51] COc1ccc(C(=O)COC(=O)CNC(=O)c2ccc(C)s2)c(OC)c1
 : 0.5	-6	.	0.9	.	4	2.2	.
[52] Cc1ccc2nc(C)cc(Nc3ccc4c(c3)OCCO4)c2c1
 : 0.3	34	-3.6	7.9	26	9	1.2	6
[53] CSCCC(NS(=O)(=O)c1ccc2[nH]c(=O)c(=O)[nH]c2c1)C(=O)O (stereo not given)
 : 0.1	2	5.1	4.0	-21	-1	0.6	11
[54] CC(=O)Oc1cccc(C2C3=C(CC(C)(C)CC3=O)Nc3ccccc3N2C(C)=O)c1 (stereo not given)
 : -0.7	-1	8.8	-1.2	-9	-5	-6.5	6
[55] COc1ccc(/C=C/C(=O)NC(=S)N2CCOCC2)cc1
 : -2.5	-4	-2.5	.	-15	-8	1.0	0
[56] CN(CC(=O)Nc1ccc(S(=O)(=O)N2CCOCC2)cc1)Cc1ccc(F)cc1
 : 0.1	4	.	0.4	.	3	4.1	.

Compound activity deposited in PubChem BioAssay by several laboratories.
